# Sfp inh: inhibitors of Bacillus subtilis Sfp phosphopantetheinyl transferase; Q9F4F7; Biochemical Sfp PPTase activity, qHTS; Potency, µM, inactives show max response, negative = inhibition, usual class: inhibitors; hit rate 3.5% among 310,000; AID 1490; active = well fitted inhibition curve with a large enough effect; inconclusive = small, poorly fitted or top-dose-only effect, or another doubt; inactive = no such curve, though single readings can be large or run the other way;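 also: the enzyme is Sfp with the accession as filed and its product quenches rhodamine fluorescence; potency is read from the fitted curve at half-maximal effect; 0% = enzyme reaction without inhibitor and -100% = no enzyme wells; top concentration of the series not given in the record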
#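 Fluorescence-quenching assay with 15 nM Sfp, 5 uM rhodamine-CoA and 12.5 uM BHQ-2-labelled ybbR peptide in pH 7.6 Hepes/MgCl2 buffer. Enzyme was pre-incubated with compound for 15 min at room temperature. Rate was taken from the 30-min fluorescence change (525/598 nm).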
# gsp antag: antagonizes gsp, the McCune-Albright syndrome mutation | hit rate 0.4% among 340,000 | Potency, µM (doses to about 76.9 µM), for inactives: top-dose activity change, negative = inhibition, hits mostly inhibitors | gsp-mutant cells, cAMP HTRF, 30 min; control for the full effect not named in the record | AID 624288; active = falling curve of any shape with a large fitted effect; inconclusive = falling curve, mostly with a smaller effect; inactive = flat or rising curve; cell line not stated here;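 also: intracellular cAMP measured with PDE inhibitor Ro 20-1724 present during compound exposure; potency is read from the fitted curve at half-maximal effect; % is scaled to controls: 0 for no effect and ±100 for the full control effect; nearly all actives have a fitted effect of over 65% in size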
#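 Cells in G418 medium, seeded 16-24 h, 37C; buffer exchange to DPBS + 1 mM CaCl2, 0.5 mM MgCl2, 0.05% BSA; cpds in DMSO + […] (300 uM stock), 30 min 37C; HTRF cAMP detection.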
# gsp ag: agonists of gsp mutant (McCune-Albright syndrome); gsp mutant cells, cAMP HTRF, 30 min; control for the full effect not named in the record; Potency, µM (highest dose often 76.9 µM), without a hit: at the highest dose activation (cAMP increase), hits mostly activators; hit rate 0.13% among 340,000; AID 624287; active = well fitted activation curve with a large enough effect; inconclusive = small, poorly fitted or top-dose-only effect, or another doubt; inactive = no such curve, though single readings can be large or run the other way; cell line not stated here;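 also: phosphodiesterase inhibitor Ro 20-1724 added with compounds to block cAMP breakdown; potency is read from the fitted curve at half-maximal effect; nearly all actives have a fitted effect of over 60% in size; about a fifth of the inactives were tested at one dose only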
#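 Cells in DMEM/10% FBS with G418 were pretreated with compounds in DMSO plus […] (300 uM stock) for 30 min at 37C. cAMP was measured by HTRF (cAMP-d2 plus anti-cAMP antibody-K) after 30 min at room temperature.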
# TRPML1 inh: blocks the human TRPML1 channel; Q9GZU1; TRPML1-inducible cells, Ca2+ dye fluorescence, FDSS; active compounds read low; inhibition of EC80 agonist-evoked calcium signal; activity change, negative = inhibition, % (concentration not given with the values); hit rate 0.02% among 390,000; in the data active means activity change below about -50%; inconclusive means about -30% to -50%; inactive means above about -30%;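 also: stimulus is agonist 54-4 at its EC80 concentration; % is scaled to controls: 0 for no effect and ±100 for the full control effect; the text of the record puts the active cut at -80%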
#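 Calcium fluorescence in TRPML1-DL cells induced overnight with Tet: a 110 s read after compound pin addition, then a 110 s antagonist read after challenge with 54-4 at 4 uM final (EC80).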
# TRPV1 PAM: human TRPV1 potentiation | AID 540277 | hit rate 0.02% among 320,000 | potentiation, % at 8.33 µM | TRPV1-expressing cells, Fluo-8 calcium influx, capsaicin EC20 potentiation; host cell line not named in the record; control for the full effect not named in the record; active means potentiation above 80%; inconclusive means 30% to 80%; inactive means below 30%; also: 0% is about no effect
# Target sequence (Q8NER1 whole entry, looked up): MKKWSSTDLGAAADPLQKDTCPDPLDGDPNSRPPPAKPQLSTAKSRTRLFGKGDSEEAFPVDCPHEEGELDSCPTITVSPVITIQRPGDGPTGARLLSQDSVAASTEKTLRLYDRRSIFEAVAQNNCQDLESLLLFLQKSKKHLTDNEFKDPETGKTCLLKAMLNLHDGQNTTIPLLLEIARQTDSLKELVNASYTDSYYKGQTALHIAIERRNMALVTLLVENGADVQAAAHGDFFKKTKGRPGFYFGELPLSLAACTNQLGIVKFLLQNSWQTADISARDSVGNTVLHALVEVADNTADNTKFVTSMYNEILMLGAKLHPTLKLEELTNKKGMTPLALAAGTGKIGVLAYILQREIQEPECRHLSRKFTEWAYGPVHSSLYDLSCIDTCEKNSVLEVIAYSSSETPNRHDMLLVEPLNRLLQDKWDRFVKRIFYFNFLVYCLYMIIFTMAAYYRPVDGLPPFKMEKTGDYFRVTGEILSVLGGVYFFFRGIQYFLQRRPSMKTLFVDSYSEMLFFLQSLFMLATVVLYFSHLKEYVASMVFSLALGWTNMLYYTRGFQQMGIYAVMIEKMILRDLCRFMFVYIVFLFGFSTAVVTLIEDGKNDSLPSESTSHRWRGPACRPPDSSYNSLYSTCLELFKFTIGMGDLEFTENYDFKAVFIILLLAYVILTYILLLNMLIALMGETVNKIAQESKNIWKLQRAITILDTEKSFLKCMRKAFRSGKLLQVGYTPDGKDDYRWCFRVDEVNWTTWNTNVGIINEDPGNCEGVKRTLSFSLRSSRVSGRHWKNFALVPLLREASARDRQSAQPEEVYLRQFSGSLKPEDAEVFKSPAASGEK
#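 Fluo-8 calcium influx in TRPV1-expressing cells, kinetic read (ex 480/em 520 nm). Compound added and read 3 min for agonist activity, followed by capsaicin at EC20 final and 2 min further read for enhancement.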
# Menin-MLL FL inh: displaces fluorescein MLL peptide from human menin; Fluorescence polarization, fluorescein-MLL peptide displacement from menin; FP activity change, % at 61.4 µM; 290,000 tested, under 10 active; inconclusive = falling polarisation curve, or a change in total fluorescence; inactive = total fluorescence flat and polarisation flat or rising; no compound was filed as active; the % refers to the polarisation; negative = inhibition;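 also: % of control where 0% means no effect; inhibitors lower the polarisation; unlabelled MLL peptide was the positive control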
# ClpP mod: qHTS Assay for Activators of ClpP; hit rate 1.9% among 340,000; AID 651965, 2013; Potency, µM (highest dose often 57.5 µM), inactives show at the highest dose activity change, negative = active; purified B. subtilis ClpP, FRET peptide cleavage, 20 min; active = well fitted falling curve with a large enough effect; inconclusive = small, poorly fitted or top-dose-only effect; inactive = no such curve, though single readings can be large or run the other way; also: potency is read from the fitted curve at half-maximal effect; the source files actives as falling curves though it sought activators and does not explain the sign; nearly all actives have a fitted effect of over 65% in size; many hits overshoot -100%
# Target sequence (P80244 whole entry, looked up): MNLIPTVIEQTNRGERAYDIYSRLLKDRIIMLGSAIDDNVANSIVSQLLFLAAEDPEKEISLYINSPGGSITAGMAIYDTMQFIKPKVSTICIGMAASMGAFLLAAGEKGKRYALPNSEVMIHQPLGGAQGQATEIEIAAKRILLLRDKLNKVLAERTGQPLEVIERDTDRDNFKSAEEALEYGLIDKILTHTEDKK
#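 ClpP 10 microg/mL final, pH 8 Tris/KCl buffer with BSA, glycerol, Tween-20; compound pinned in; FRET-FV substrate; RT 20 min; Ex320/Em430; ΔFRET vs ADEP 5.8 microM, DMSO, no enzyme.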
# * = called active by the depositor; ? = inconclusive; / = no result given; [ ] = remark or other dose.
SMILES,Sfp inh,gsp antag,gsp ag,TRPML1 inh,TRPV1 PAM,Menin-MLL FL inh,ClpP mod
CCn1c(CCNC(=O)c2ccc(OC)cc2)nnc1SCc1ccc(Cl)cc1Cl,6%,-22%,16%[15.4 µM],-6,-4,3.0,1.3%
C/C(=N\NC(=O)CSc1nc(C)cc(C)n1)c1cccc([N+](=O)[O-])c1,9%,16%,-2%[15.4 µM],7,-2,-0.9,/
Cc1ccc(-c2ccc(SCC(=O)Nc3nonc3C)nn2)cc1,-22%,?,4%,35,-4,2.4,-2.6%
COc1ccc(-n2c(SCC(=O)NCCC(C)C)nc3ccsc3c2=O)cc1,?,1%,-8%,8,-18,0.9,0.9%
CC(=O)Nc1cc(-n2cnnn2)ccc1C,14%,8%,-17%[15.4 µM],-2,-10,0.6,/
CC1CC(=S)Nc2ccccc2S1 (stereo not drawn),4%,13%,4%,-2,17,1.7,-5.1%
Nc1c(/C=C2/C=CC(=O)C(O)=C2)c(=O)nc2sc(CC(=O)N3CCOCC3)nn12,/,0%,29%,0,/,/,-1.6%
O=C(CNC(=O)Cc1ccc(Cl)cc1)NCc1ccco1,18%,13%,-14%[15.4 µM],13,14,-0.1,/
O=C(O)CC1=C(Nc2ccccc2)C(=O)N(c2ccccc2)C1c1ccc(Br)cc1 (stereo not drawn),33%[activator],/,3%[15.4 µM],-2,3,2.7,/
CCOc1c(Cl)cc(CNCC(C)C)cc1Cl,/,5%,1%,-6,/,/,-3.8%
CCCCN=C1C([N+](=O)[O-])=CC=C2C1=NC1(CCCCC1)N2O,28µM*,0%,-51%[inhibitor],-29,-4,-2.0,-1.8%
CCOC(=O)C1CCCN(c2c(N3CCC(N4CCCCC4)CC3)c(=O)c2=O)C1 (stereo not drawn),10%,-5%,6%,-8,-3,-29,1.0%
O=C(CCNc1ccccc1)c1ccc2c(c1)OCO2,3%,-1%,-21%,-6,6,14,-1.6%
Cc1cccc(C(C)(C)C)c1OCCOCCN1CCCC1,1%,-4%,-15%,-1,17,0.1,-0.5%
C/C=C(/C)C(=O)Nc1cccc(C2=NOC3(C2)C[C@@H](C(N)=O)N(C(=O)CC(c2ccccc2)c2ccccc2)C3)c1 (stereo partly drawn),-6%,-12%,/,-12,28,1.4,-0.7%
Cc1nc2ncccn2c1-c1csc(NCc2ccco2)n1,8.9µM*,2%,-31%[inhibitor],3,18,?,-7.0%
COc1ccc(N(CC(=O)NCCc2ccccc2)C(=O)c2csnn2)cc1OC,6%,-14%,1%,7,-4,-1.5,-0.1%
C/C(=N\NC(=O)c1ccc(N2CCCC2=O)cc1)c1ccccc1,10%,-2%,1%,-1,-14,6.0,/
Cc1ccc(NC(=O)Nc2ccc3c(c2)OCO3)nc1,17%,-16%,4%,-17,1,-3.7,-3.4%
O=C1C=C(Nc2ccccc2C(=O)O)c2ccccc2C1=O,-8%,-18%,-7%,-15,10,2.0,4.2%
CCCC(=O)Nc1ccc(NC(=O)c2ccccn2)cn1,-19%,-1%,20%[15.4 µM],-18,1,2.4,-5.4%
CN(C)S(=O)(=O)N1CCC(Oc2cccc(C(=O)NCCCC3CCCC3)c2)CC1,-2%,11%,2%,-15,14,/,0.1%
CCS(=O)(=O)c1ccc2oc(SCC(=O)NC34CC5CC(CC(C5)C3)C4)nc2c1,-4%,?,-20%,-1,-13,2.1,-3.2%
CN1CCC(=NNC(=O)COc2ccc(Cl)cc2)CC1,18%,12%,-5%,-4,7,0.5,/
O=S(=O)(c1ccc(Cl)c(Cl)c1)N1CCc2nc3ccccc3n2CC1,6%,0%,16%,5,-10,-1.4,-1.4%
CCSc1nc2ccccc2n1CC(=O)O,20%,7%,-27%,21,-3,0.2,/
O=C(COC(=O)C1CC1)NCc1ccccc1Cl,14%,5%,?,0,-11,-1.0,0.1%
Cc1ccccc1N1CCN(C(=O)c2cc(C3CC3)nn2-c2ccccc2)CC1,/,-11%,14%,4,-15,/,-1.5%
COc1ccc(CC(=O)Nc2cc(F)ccc2F)cc1S(=O)(=O)N1CCOCC1,/,/,4%,-6,/,/,-1.1%
OCC1(CCOc2ccccc2)CCN(Cc2cc(Cl)ccc2O)CC1,18%,8%,-2%[15.4 µM],-4,-1,0.3,-0.2%
CCCn1c(SCC(=O)N(CC)CC)nnc1-c1ccncc1,21%,5%,23%,7,2,-1.5,/
CCOc1c2ccc(C(=O)NCCCCc3ccccc3)cc2nn1C,5%,4%,-34%[inhibitor],18,21,2.2,3.9%
O=C(CSc1nc(-c2ccco2)cc(C(F)(F)F)n1)Nc1cccnc1,14%,-6%,-35%[inhibitor],7,-13,2.2,-12%
Cc1ccc(NC(=S)NCc2ccc(F)cc2)c(C)c1,12%,-5%,-1%,-4,-33,3.9,/
C=CCOC(=O)C1=C(C)Nc2[nH]c(=O)[nH]c(=O)c2C1c1cccc(OC)c1 (stereo not drawn),-2%,/,/,/,?,5.0,/
CCOCCOC(=O)C1=C(C)NC(=O)NC1c1ccc2c(c1)OCO2 (stereo not drawn),13%,2%,3%,12,8,-6.3,-0.2%
Cc1ccc(N2CCN(S(=O)(=O)c3cccs3)CC2C)cc1 (stereo not drawn),-10%,-1%,6%,31,2,-3.6,-1.1%
Fc1ccc(-c2cn3cc(C(F)(F)F)cc(Cl)c3n2)cc1,8%,-1%,-46%[inhibitor],10,-13,1.8,?
Cc1ccc(S(=O)(=O)NC(CC(=O)N2CCc3ccccc32)c2ccco2)cc1 (stereo not drawn),6%,-6%,-19%,19,3,2.2,0.7%
O=C(NN1C(=O)NC2(CCCCC2)C1=O)c1cccs1,/,5%,3%,5,/,/,2.6%
Oc1ccc(N2Cc3ccccc3C2)cc1,-30%,-3%,0%,-10,-13,-6.9,/
O=[N+]([O-])c1ccc(Cc2ccccn2)cc1,/,6%,-7%,7,11,/,1.6%
CCc1nnc(SCC(=O)Nc2ccc(NC(C)=O)cc2)n1-n1cccc1,/,10%,-4%[15.4 µM],-16,-4,/,/
COc1ccc(OC)c2c1sc(=NC(=O)c1ccco1)n2C,-6%,?,-25%,1,?,2.4,?
CCOc1ccc(NS(=O)(=O)c2ccc3[nH]c(=O)[nH]c3c2)cc1,-1%,-2%,-135%[inhibitor],10,-5,4.1,/
COCCCn1c(=O)c2sccc2n2c(CCCC(=O)NCc3ccc(OC)cc3)nnc12,11%,-4%,3%,-2,-11,-4.1,-5.8%
COCCCNc1oc(/C=C/c2ccccc2)nc1C#N,-5%,-1%,23%,18,-26,-0.8,/
O=C1NCCN1Cc1ccc(F)cc1,1%,10%,7%,18,4,-2.7,-0.2%
CC1(C)SC[C@H](C(=O)Nc2cccc(Cl)c2)N1C=O,15%,-1%,5%[15.4 µM],18,5,5.6,-7.8%
COc1ccc(C(C)=O)cc1COC(=O)c1cccnc1Cl,9%,-10%,10%,-17,-10,-1.0,/
# Next structures.
SMILES,Sfp inh,gsp antag,gsp ag,TRPML1 inh,TRPV1 PAM,Menin-MLL FL inh,ClpP mod
Cc1nc2cc(-c3ccccc3)sc2c(=O)n1N,10%,-7%,60%,-11,-16,2.3,-10%
O=C1c2ccccc2C(=O)N1CCCc1nc(-c2ccccc2)no1,-14%,-14%,12%,0,2,-0.6,-0.3%
c1cn(-c2ccc(-c3ccnc4ncnn34)cc2)cn1,1%,7%,?,4,0,-4.5,/
COc1cccc(-c2cc3nc(-c4ccccc4)cc(N4CCN(C(=O)c5ccoc5)CC4)n3n2)c1,/,/,?,4,/,/,4.1%
COC(=O)COc1ccc2c(c1C)O/C(=C\c1ccco1)C2=O,50µM*,0%,?,2,1,?,/
CC1(C)CC(=O)C=C(NNC(=O)OC(C)(C)C)C1,14%,-1%,1%,3,13,-0.2,/
CCC(CC)c1nnc(NC(=O)/C=C/c2ccco2)s1,56µM*,-2%,12%,8,-3,8.7,-2.4%
CCCCC(=O)NC(=S)Nc1cc(C(=O)O)ccc1OC,10%,-9%,22%[15.4 µM],-4,0,-5.8,/
Cc1cc(Cl)c(S(=O)(=O)Nc2ccc3c(c2)OCO3)cc1OCC(=O)NC1CCCCC1,8%,9%,-58%[inhibitor],-9,3,4.3,-6.6%
COC(=O)C1CCN(C(=O)C2CCC(=O)N(CCCc3ccccc3)C2)CC1 (stereo not drawn),14%,5%,23%,-16,-8,-1.6,/
CC(=NNc1ccc2ccccc2n1)c1ccccc1O,/,?,?,16,/,/,-2.0%
C=CCCC(=O)Nc1nc(C)c(-c2csc(Nc3cccc(OC)c3)n2)s1,0%,-4%,/,13,2,-0.6,-16%
CC(C)(C)C(=O)Nc1ccc(C(=O)COC(=O)C2=COCCO2)cc1,/,-3%,7%,-19,25,/,0.2%
O=C(CN(Cc1ccccc1Cl)S(=O)(=O)c1ccc(Cl)cc1)N/N=C/c1ccc(C(=O)O)cc1,8%,-14%,-2%,-22,-20,/,-2.7%
Cc1ccc(-n2ncc3c(SCc4ccccn4)ncnc32)c(C)c1,2%,-6%,3%[15.4 µM],-11,16,2.8,-1.5%
CCOP(=O)(OCC)C(Nc1ccccc1)c1ccc2c(c1)OCO2 (stereo not drawn),0%,1%,-15%,13,10,2.8,0.4%
CCOC(=O)c1ccc(CNC(=O)CCC(=O)O)cc1,0%,10%,3%,4,5,-2.2,0.0%
CC1CCCCC1NC(=O)COC(=O)/C=C/c1ccco1 (stereo not drawn),/,0%,-11%,2,-10,/,0.9%
O=C1CCCC2=C1Sc1ccccc1N2,?,?,-4%[15.4 µM],13,-4,?,/
O=C(c1ccc(Cl)nc1)N1CCC(Cc2ccccc2)CC1,-5%,9%,-10%[15.4 µM],-6,23,-2.1,/
Cc1ccc2cc(CN(CCN3CCCC3)C(=O)Nc3ccccc3)c(=O)[nH]c2c1C,10%,-1%,17%,-3,-3,4.9,-12%
Cc1ccc(-n2nc(C(=O)O)cc2-c2ccccc2)cc1,32%[activator],-30%,-27%,-15,8,6.2,-1.2%
CCOC(=O)c1cccc(NC(=O)c2ccc(NC(=O)c3ccco3)cc2)c1,-6%,-9%,5%,3,-8,/,-1.8%

# Source: PubChem BioAssay (National Center for Advancing Translational Sciences (NCATS))
